GALR2 ag: agonists of human galanin receptor 2 (GALR2). O43603. GALR2-expressing cells, agonist activation read-out. activation, %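 (tested at 5 µM)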. hit rate 0.48% among 140,000. AID 803;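 active = above mean plus 3 SD of all compounds, about 5% in these data, not always enough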;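 also: 0% = vehicle buffer wells and 100% = reference agonist at full effect; tested in CHO reporter cells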
Target sequence (O43603 whole entry, looked up): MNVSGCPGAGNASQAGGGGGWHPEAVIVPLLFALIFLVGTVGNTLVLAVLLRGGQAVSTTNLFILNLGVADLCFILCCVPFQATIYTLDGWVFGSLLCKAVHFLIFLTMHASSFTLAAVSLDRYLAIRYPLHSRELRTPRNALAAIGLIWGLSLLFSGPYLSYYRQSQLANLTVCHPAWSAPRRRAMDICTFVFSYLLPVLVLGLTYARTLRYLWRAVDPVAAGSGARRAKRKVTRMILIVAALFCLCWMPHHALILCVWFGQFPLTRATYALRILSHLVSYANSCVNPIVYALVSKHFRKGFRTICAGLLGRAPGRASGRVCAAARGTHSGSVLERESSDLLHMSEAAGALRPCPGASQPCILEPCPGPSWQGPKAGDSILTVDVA
HSV replic up: increases HSV replication in cells; HSV replication augmentation in cells, fold increase; maximum fold increase; hit rate 0.005% among 220,000;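 active = peak rise of 1.5-fold or more in the series; inconclusive = self-fluorescent or not available for retest; tested in PC3 cells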;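 also: first round at 10 µM; read as green reporter fluorescence; hits show the peak of a series up to 25 µM; 1 = signal of infected wells without compound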
Insulin prom inh: TRM-6 insulin promoter activity inhibition. TRM-6 cells (human fetal islet line), insulin promoter-eGFP reporter, imaging; reporter expression induced with tamoxifen. inhibition, % at 2 µM. hit rate 0.9% among 130,000;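 active = inhibition above the mean plus 3 SD, with well images judged a real hit on visual review, cut at about 60% in these data, passing the limit was not always enough; inconclusive = inhibition over the cutoff but images rejected on review; inactive = inhibition not above the cutoff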
RGS16-Gao HTS: regulators of human RGS16-Galphao interaction; O15492+P09471; bead-based flow cytometry RGS16-Galphao binding, fluorescence; actives lie on both sides; binding response (% of control), % at 10 µM; hit rate 0.38% among 220,000; AID 1441;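 active = below 25% or above 175%, edge rows of some plates excepted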;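 also: Galphao activated by GDP with aluminum fluoride before binding; 100% = wells without compound and 0% = beads without RGS; some results beyond the cut were filed as inactive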
Target sequence (O15492 whole entry, looked up): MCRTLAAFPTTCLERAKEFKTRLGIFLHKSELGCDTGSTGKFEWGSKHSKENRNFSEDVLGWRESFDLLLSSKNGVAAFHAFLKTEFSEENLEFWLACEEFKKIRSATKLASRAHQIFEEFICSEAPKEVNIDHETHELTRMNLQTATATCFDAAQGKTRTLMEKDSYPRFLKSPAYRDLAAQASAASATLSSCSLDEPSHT
Target sequence (P09471 whole entry, looked up): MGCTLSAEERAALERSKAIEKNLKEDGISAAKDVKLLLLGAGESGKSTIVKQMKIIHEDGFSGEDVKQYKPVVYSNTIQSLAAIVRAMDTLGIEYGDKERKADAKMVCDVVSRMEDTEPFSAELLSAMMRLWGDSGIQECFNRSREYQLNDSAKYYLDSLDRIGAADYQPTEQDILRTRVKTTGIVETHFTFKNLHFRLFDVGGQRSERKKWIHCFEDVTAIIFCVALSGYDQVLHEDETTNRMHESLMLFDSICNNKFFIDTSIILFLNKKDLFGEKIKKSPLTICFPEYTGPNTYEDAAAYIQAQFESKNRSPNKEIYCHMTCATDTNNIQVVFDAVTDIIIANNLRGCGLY
PKD1 inh: blocks activity of human protein kinase D1; PKD1 kinase fluorescence polarization assay; Q15139; hit rate 0.056% among 200,000; inhibition, %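 (about 10 µM by stock and volumes)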;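 active = inhibition of 50% or more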;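 also: controls were vehicle for no effect and a reference inhibitor for full effect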
Insulin prom inh cell count: second read-out of Insulin prom inh, no call of its own (marks repeat the call); normalized cell count, %; measured here: cell count, toxicity; reference of the scale not given here;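 cells exposed to compound for 48 h; stained nuclei by imaging scaled within each plate; lower means fewer cells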
HSV replic up primary fold: also measured in HSV replic up; calls as there; fold increase; compound at 10 µM; measured here: primary screen fold increase 10 uM; tested in PC3 cells;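 GFP signal in the first replicate; 1 = infected wells without compound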
* marks the source's active call; other numbers are inactive results.

How did Cc1ccc(O)c(C(=O)c2cnn(-c3ccccc3)c2)c1 do in these assays?
GALR2 ag: -1.1; HSV replic up: inactive; Insulin prom inh: 3; RGS16-Gao HTS: 99; PKD1 inh: -3; Insulin prom inh cell count: 127; HSV replic up primary fold: 0.71

What do the screens show for `CNC(=O)c1[nH]cnc1C(=O)Nc1ccc(C)cc1`?
GALR2 ag: -1.4; HSV replic up: inactive; Insulin prom inh: 54; RGS16-Gao HTS: 100; PKD1 inh: -4; Insulin prom inh cell count: 111; HSV replic up primary fold: 0.98

Results for CCOc1ccc(-n2c(C)nc(O)c2N=Nc2ccccc2)cc1 ?
HSV replic up: inactive; RGS16-Gao HTS: 103; PKD1 inh: 6; HSV replic up primary fold: 0.94

Results for CSc1nc(C)c2c(c1C#N)CCCC2 ?
GALR2 ag: -3.5; HSV replic up: inactive; RGS16-Gao HTS: 102; PKD1 inh: -3; HSV replic up primary fold: 0.97

Results for CCCCn1nc2cc(C(=O)NCC34CC5CC(CC(C5)C3)C4)ccc2c1OCC ?
GALR2 ag: -0.6; HSV replic up: inactive; Insulin prom inh: 27; RGS16-Gao HTS: 98; PKD1 inh: -5; Insulin prom inh cell count: 104; HSV replic up primary fold: 0.99

What do the screens show for `COc1ccc(-c2cccc(C(=O)Nc3ccccc3C)c2)cc1`?
GALR2 ag: -0.6; HSV replic up: inactive; RGS16-Gao HTS: 102; PKD1 inh: -10; HSV replic up primary fold: 1.1

Results for COC(=O)C1=C(NC(=O)C(C)(C)C)CCS1 ?
GALR2 ag: -1.9; HSV replic up: inactive; RGS16-Gao HTS: 103; PKD1 inh: -10; HSV replic up primary fold: 1

How did CCCN1C2CCCC1CC(NC(=O)Nc1ccc(C(C)C)cc1)C2 (configuration not stated) do in these assays?
GALR2 ag: -0.5; HSV replic up: inactive; Insulin prom inh: 21; RGS16-Gao HTS: 37; PKD1 inh: 3; Insulin prom inh cell count: 33; HSV replic up primary fold: 0.93

How did CC(C)n1c(SCC(N)=O)nc2c1c(=O)n(C)c(=O)n2C do in these assays?
GALR2 ag: -4.0; HSV replic up: inactive; Insulin prom inh: -12; RGS16-Gao HTS: 79; PKD1 inh: 17; Insulin prom inh cell count: 134; HSV replic up primary fold: 1.1

How did N#CC1=C(N)Oc2ccc3ccc(O)cc3c2C1c1ccsc1 (configuration not stated) do in these assays?
GALR2 ag: -0.4; HSV replic up: inconclusive; RGS16-Gao HTS: 81; PKD1 inh: -2

What do the screens show for `COc1ccc(C(=O)N[C@H](C(=O)Nc2nc3ccccc3[nH]2)C(C)C)cc1`?
HSV replic up: inactive; RGS16-Gao HTS: 96; PKD1 inh: -7; HSV replic up primary fold: 0.67

What do the screens show for `CC(C)=CC(=O)OCC(=O)Nc1ccccc1Cl`?
GALR2 ag: -0.3; HSV replic up: inactive; Insulin prom inh: 7; RGS16-Gao HTS: 99; PKD1 inh: -1; Insulin prom inh cell count: 106; HSV replic up primary fold: 0.87

How did O=C(Nc1ccc(C2=NCCN2)cc1)c1ccc(C(=O)Nc2ccc(C3=NCCN3)cc2)c(Cl)c1 do in these assays?
HSV replic up: inactive; RGS16-Gao HTS: 119; HSV replic up primary fold: 1.1

Results for COc1cccc(C2CC(c3cccc(Br)c3)n3ncnc3N2)c1 (configuration not stated) ?
GALR2 ag: -1.3; HSV replic up: inactive; RGS16-Gao HTS: 107; PKD1 inh: -4; HSV replic up primary fold: 0.62

Results for O=C(O)CNS(=O)(=O)c1ccc(F)cc1 ?
GALR2 ag: -0.9; HSV replic up: inactive; Insulin prom inh: 18; RGS16-Gao HTS: 81; PKD1 inh: 1; Insulin prom inh cell count: 108; HSV replic up primary fold: 0.9

Results for CC(C)(C)NC(=O)C(c1c[nH]c2ccccc12)N(C(=O)Cn1nnc(-c2ccc(F)cc2)n1)c1cccc(O)c1 (configuration not stated) ?
GALR2 ag: 0.2; HSV replic up: inactive; RGS16-Gao HTS: 116; PKD1 inh: 5; HSV replic up primary fold: 0.62

What do the screens show for `COc1ccc(/C=N/Nc2nc(-c3ccc(C)cc3)c(NC(C)=O)s2)cc1`?
HSV replic up: inactive; RGS16-Gao HTS: 89; HSV replic up primary fold: 1.1

How did Cc1ccc(C(=O)C(OC(=O)CNS(=O)(=O)c2ccccc2)c2ccccc2)cc1 (configuration not stated) do in these assays?
GALR2 ag: -2.4; HSV replic up: inactive; Insulin prom inh: 11; RGS16-Gao HTS: 106; PKD1 inh: 20; Insulin prom inh cell count: 94; HSV replic up primary fold: 0.77

Results for O=C(CSc1nc2ccc(Cl)cc2o1)NCc1ccc2c(c1)OCO2 ?
GALR2 ag: -2.3; HSV replic up: inactive; Insulin prom inh: 3; RGS16-Gao HTS: 73; PKD1 inh: 3; Insulin prom inh cell count: 98; HSV replic up primary fold: 0.97

What do the screens show for `CCn1c(SCC(=O)Nc2ccc3c(c2)c2ccccc2n3CC)nnc1-c1ccco1`?
GALR2 ag: -0.8; Insulin prom inh: 17; RGS16-Gao HTS: 109; PKD1 inh: -2; Insulin prom inh cell count: 38

What do the screens show for `O=C(CSC1CC(=O)N(CCc2ccccc2)C1=O)Nc1ccc(Cl)cc1` (configuration not stated)?
GALR2 ag: -0.2; HSV replic up: inactive; RGS16-Gao HTS: 105; PKD1 inh: 6; HSV replic up primary fold: 1

Results for COc1ccc(N2CCN(C(=O)c3cccc(N4C(=O)C5CC=CC(C)C5C4=O)c3)CC2)cc1 (configuration not stated) ?
GALR2 ag: -1.1; RGS16-Gao HTS: 110; PKD1 inh: -10

How did COc1ccc(OCC(=O)Nc2cccc3ncccc23)cc1 do in these assays?
GALR2 ag: -0.4; HSV replic up: inactive; Insulin prom inh: 7; RGS16-Gao HTS: 57; PKD1 inh: -1; Insulin prom inh cell count: 117; HSV replic up primary fold: 0.88

Results for O=[N+]1C2=C(CCCC2)N([O-])C12CCCC2 ?
GALR2 ag: -1.3; HSV replic up: inactive; Insulin prom inh: -136; RGS16-Gao HTS: 104; PKD1 inh: -4; Insulin prom inh cell count: 48; HSV replic up primary fold: 1.1

Results for C/C=C/c1ccc(OCCCCn2cncn2)c(OC)c1 ?
GALR2 ag: -1.3; HSV replic up: inactive; Insulin prom inh: -19; RGS16-Gao HTS: 98; PKD1 inh: -7; Insulin prom inh cell count: 131; HSV replic up primary fold: 1.1

Results for CC1=C(C)CC2(SC1)C(=O)N(c1ccccc1)N=C2N (configuration not stated) ?
HSV replic up: inactive; Insulin prom inh: 7; RGS16-Gao HTS: 114; PKD1 inh: 1; Insulin prom inh cell count: 78; HSV replic up primary fold: 0.99

Results for Cc1cc(C)c2nc(N3CCC(C(=O)NCCCN4CCCCC4)CC3)sc2c1 ?
GALR2 ag: 0.1; HSV replic up: inactive; Insulin prom inh: inactive; RGS16-Gao HTS: 100; PKD1 inh: 3; Insulin prom inh cell count: 47; HSV replic up primary fold: 0.44

How did Cc1cccc(C)c1NC(=O)C(c1ccc([N+](=O)[O-])cc1)N(C)C(=O)c1ccccn1 (configuration not stated) do in these assays?
GALR2 ag: -0.7; HSV replic up: inactive; Insulin prom inh: 22; RGS16-Gao HTS: 96; PKD1 inh: -8; Insulin prom inh cell count: 104; HSV replic up primary fold: 1.1

Results for CCC(Sc1nnnn1C)C(=O)Nc1ccc(C(C)=O)cc1 (configuration not stated) ?
GALR2 ag: -1.1; HSV replic up: inactive; RGS16-Gao HTS: 102; PKD1 inh: -11; HSV replic up primary fold: 1

What do the screens show for `NC(=O)c1ccccc1NC(=O)/C=C/c1c(Cl)cccc1Cl`?
GALR2 ag: 0.1; HSV replic up: inactive; Insulin prom inh: 3; RGS16-Gao HTS: 109; PKD1 inh: -2; Insulin prom inh cell count: 140; HSV replic up primary fold: 0.83

What do the screens show for `CCCN1CCN(C(=O)Cn2cccc2C(=O)c2ccccc2)CC1`?
GALR2 ag: 0.1; HSV replic up: inactive; Insulin prom inh: -17; RGS16-Gao HTS: 104; PKD1 inh: 3; Insulin prom inh cell count: 78; HSV replic up primary fold: 1.1

What do the screens show for `COC(=O)C(Cc1ccc(O)cc1)NC(=O)c1ccccc1OC` (configuration not stated)?
GALR2 ag: -2.4; HSV replic up: inactive; Insulin prom inh: -14; RGS16-Gao HTS: 104; PKD1 inh: 4; Insulin prom inh cell count: 106; HSV replic up primary fold: 1

What do the screens show for `c1ccc(CSc2nnc3ccc(-c4ccco4)nn23)nc1`?
HSV replic up: inactive; Insulin prom inh: -11; RGS16-Gao HTS: 94; PKD1 inh: -13; Insulin prom inh cell count: 96; HSV replic up primary fold: 0.91

How did COc1ccc(CCNC(=O)c2c(-c3ccccc3Cl)noc2C)cc1 do in these assays?
GALR2 ag: -1.9; HSV replic up: inactive; Insulin prom inh: -26; RGS16-Gao HTS: 132; PKD1 inh: 3; Insulin prom inh cell count: 67; HSV replic up primary fold: 0.69

How did O=C1/C(=C\c2ccccc2Cl)SC(=S)N1CCC(=O)N1CCCc2ccccc21 do in these assays?
GALR2 ag: -1.2; HSV replic up: inactive; Insulin prom inh: 22; RGS16-Gao HTS: 118; PKD1 inh: -6; Insulin prom inh cell count: 89; HSV replic up primary fold: 0.52

Results for CCOC(=O)c1sc(NC(=O)CSc2nnc(C)s2)c(C(=O)OCC)c1C ?
GALR2 ag: -0.6; HSV replic up: inactive; Insulin prom inh: -73; RGS16-Gao HTS: 186; PKD1 inh: 6; Insulin prom inh cell count: 123; HSV replic up primary fold: 0.94

Results for CCOC(=O)N1CCC(NC(=O)CCc2nc(-c3ccccc3F)no2)CC1 ?
GALR2 ag: -1.9; HSV replic up: inactive; Insulin prom inh: -184; RGS16-Gao HTS: 101; PKD1 inh: -3; Insulin prom inh cell count: 127; HSV replic up primary fold: 0.92

Results for CC(C)CCNC(=O)C(c1ccco1)N(Cc1ccccc1)C(=O)c1snc(C(N)=O)c1N (configuration not stated) ?
GALR2 ag: -0.8; HSV replic up: inactive; Insulin prom inh: -56; RGS16-Gao HTS: 91; PKD1 inh: 1; Insulin prom inh cell count: 130; HSV replic up primary fold: 1.3

What do the screens show for `Cc1c(C=O)c2ccccc2n1CC(=O)N1CCc2ccccc2C1`?
GALR2 ag: -0.2; HSV replic up: inactive; Insulin prom inh: -57; RGS16-Gao HTS: 83; PKD1 inh: -3; Insulin prom inh cell count: 35; HSV replic up primary fold: 0.62

What do the screens show for `Cc1ccccc1C(=O)NNC(=O)C1CCCN(c2ncccn2)C1` (configuration not stated)?
GALR2 ag: -3.7; HSV replic up: inactive; Insulin prom inh: 37; RGS16-Gao HTS: 90; PKD1 inh: -7; Insulin prom inh cell count: 93; HSV replic up primary fold: 0.99

Results for CCS(=O)(=O)N1CCC(N2CCC(C)CC2)CC1 ?
HSV replic up: inactive; RGS16-Gao HTS: 86; HSV replic up primary fold: 1.1

Results for CCOc1cc(N2CCOCC2)c(OCC)cc1NC(=O)COC(=O)c1cccc2ccccc12 ?
GALR2 ag: -0.6; HSV replic up: inactive; RGS16-Gao HTS: 105; PKD1 inh: 5; HSV replic up primary fold: 1

What do the screens show for `Cc1ccc2c(Cl)cc(Cl)c(OCC(=O)N(C(C)C)C(C)C)c2n1`?
HSV replic up: inactive; Insulin prom inh: -21; RGS16-Gao HTS: 99; PKD1 inh: 5; Insulin prom inh cell count: 121; HSV replic up primary fold: 0.98

Reprinted at random: five compounds from above, in no set order.
Results for CCOC(=O)N1CCC(NC(=O)CCc2nc(-c3ccccc3F)no2)CC1 ?
GALR2 ag: -1.9; HSV replic up: inactive; Insulin prom inh: -184; RGS16-Gao HTS: 101; PKD1 inh: -3; Insulin prom inh cell count: 127; HSV replic up primary fold: 0.92

Results for CCOC(=O)c1sc(NC(=O)CSc2nnc(C)s2)c(C(=O)OCC)c1C ?
GALR2 ag: -0.6; HSV replic up: inactive; Insulin prom inh: -73; RGS16-Gao HTS: 186; PKD1 inh: 6; Insulin prom inh cell count: 123; HSV replic up primary fold: 0.94

What do the screens show for `CCCN1CCN(C(=O)Cn2cccc2C(=O)c2ccccc2)CC1`?
GALR2 ag: 0.1; HSV replic up: inactive; Insulin prom inh: -17; RGS16-Gao HTS: 104; PKD1 inh: 3; Insulin prom inh cell count: 78; HSV replic up primary fold: 1.1

How did COc1ccc(CCNC(=O)c2c(-c3ccccc3Cl)noc2C)cc1 do in these assays?
GALR2 ag: -1.9; HSV replic up: inactive; Insulin prom inh: -26; RGS16-Gao HTS: 132; PKD1 inh: 3; Insulin prom inh cell count: 67; HSV replic up primary fold: 0.69

Results for CC(C)CCNC(=O)C(c1ccco1)N(Cc1ccccc1)C(=O)c1snc(C(N)=O)c1N (configuration not stated) ?
GALR2 ag: -0.8; HSV replic up: inactive; Insulin prom inh: -56; RGS16-Gao HTS: 91; PKD1 inh: 1; Insulin prom inh cell count: 130; HSV replic up primary fold: 1.3

Assay outcomes deposited in PubChem by several laboratories.
